From PubChem
Autofluor counter: flagged as autofluorescent in microsphere protease counterscreen; compound autofluorescence counterscreen, microsphere flow cytometry; hits give high values; fluorescence intensity (concentration not given with the values); hit rate 3.1% among 360,000;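 active = at least 3 SD above the mean of all compounds, about 16000 in these data; inconclusive = too few beads counted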;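 also: 100 nL of 1 mM stock went into each well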
ugtP null kill: compounds lethal to S. aureus RN4220 ugtP deletion mutant. OD600 growth, 16 h; some inactives read as strong as hits. growth inhibition, % (no concentration beside the values). hit rate 0.54% among 330,000. AID 1259309;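 active = z-score under -3 and OD600 up to 0.15 on both plates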;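 also: plate controls were untreated wells for no effect and antibiotic for full effect; wells of about 80 µL received 100 nL stock; the first replicate is given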
Sa RN4220 lethal: kills Staphylococcus aureus RN4220; hit rate 0.33% among 330,000; inhibition, % (test concentration not listed); AID 1259311; S. aureus RN4220 growth, OD600, 16 h;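 active = z-score of -3 or lower and OD600 up to 0.18 on both plates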;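 also: plate controls were untreated cells for no effect and reference antibiotic for full effect; stock transfer was 100 nL into about 80 µL; one replicate is shown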
PrP UTR inh: inhibition of PrP 5' UTR reporter expression | cell-based PrP 5' UTR mRNA reporter, plate reader | inhibition, % (no concentration beside the values) | hit rate 0.35% among 340,000;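 active = every replicate at 50% or more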;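 also: 0 = median of the neutral control wells; tested in H4 reporter cells; numbers are from one replicate; inactives centre near -14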
BJeLR lethal: kills HRASV12-expressing BJeLR cells; inhibition, % (no concentration beside the values); AID 1554; BJeLR (HRASV12) viability, CellTiter-Glo ATP luminescence, 48 h; reference of the scale not given here; hit rate 0.17% among 300,000;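 active = replicate mean above 50%; inconclusive = above 50% but judged a plate artefact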;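 also: 50 nL library stock added to about 25 µL; numbers are from one replicate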
Mtb hypoxia rep: inhibitors of hypoxia-regulated fluorescent reporter in Mycobacterium tuberculosis | AID 1159583 | M. tuberculosis hypoxia-regulated fluorescent reporter, fluorescence | fluorescence inhibition, % (concentration not given with the values) | hit rate 0.1% among 300,000;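 active = 35 to 45% if threefold the growth effect, above 45% if 1.5-fold the growth effect; inactive = the rest, general growth blockers included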;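 also: wells of about 50 µL received 100 nL stock; 0% = vehicle wells and 100% = reference inhibitor wells; whole bacteria with a GFP reporter of the hypoxia response; strong numbers were not always called active; many hits fall short of the cut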
Mtb hypoxia rep growth: recorded beside Mtb hypoxia rep, whose call it bears; growth inhibition, %; measured here: M. tuberculosis growth (absorbance);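 0% = vehicle and 100% = reference antibiotic; read after six days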
An asterisk follows results filed as active.

Sample of the layout (five entries):
Screening O=C1CC(N(CCc2ccccc2)C(=S)Nc2ccccc2)C(=O)N1c1ccc(Br)cc1 (configuration not stated) returned Autofluor counter 3011, ugtP null kill 98*, Sa RN4220 lethal 98*, PrP UTR inh -18, BJeLR lethal 7, Mtb hypoxia rep 12 and Mtb hypoxia rep growth 2.
Screening CCCn1c(N)c(N2CCCCC2)c(=O)n(CC(=O)Nc2ccc(OC(F)(F)F)cc2)c1=O returned Autofluor counter 3707, ugtP null kill 1, Sa RN4220 lethal 7.8, PrP UTR inh -9, BJeLR lethal -8, Mtb hypoxia rep 2 and Mtb hypoxia rep growth -2.
COc1ccccc1C(=O)OCCN=C1NS(=O)(=O)c2ccccc21 was read as Autofluor counter 2804, ugtP null kill 2, Sa RN4220 lethal 4.0, PrP UTR inh -27, BJeLR lethal -3, Mtb hypoxia rep -11 and Mtb hypoxia rep growth 1.
For Cc1ccc(OCC(=O)Nc2ccc(CN3CCCCC3)cc2)c(C)c1 the results were Autofluor counter 4482, ugtP null kill 14, Sa RN4220 lethal 2.5, PrP UTR inh -1, BJeLR lethal -2, Mtb hypoxia rep 7 and Mtb hypoxia rep growth -2.
`CCn1c(SCC(=O)Nc2cccc(NC(C)=O)c2)nc2c([nH]c3ccccc32)c1=O` gave Autofluor counter 4162, ugtP null kill -6, Sa RN4220 lethal 2.3, PrP UTR inh 3, BJeLR lethal -5, Mtb hypoxia rep -2 and Mtb hypoxia rep growth -8.

All compounds of this part, from the start:
Screening O=C1CC(N(CCc2ccccc2)C(=S)Nc2ccccc2)C(=O)N1c1ccc(Br)cc1 (configuration not stated) returned Autofluor counter 3011, ugtP null kill 98*, Sa RN4220 lethal 98*, PrP UTR inh -18, BJeLR lethal 7, Mtb hypoxia rep 12 and Mtb hypoxia rep growth 2.
Screening CCCn1c(N)c(N2CCCCC2)c(=O)n(CC(=O)Nc2ccc(OC(F)(F)F)cc2)c1=O returned Autofluor counter 3707, ugtP null kill 1, Sa RN4220 lethal 7.8, PrP UTR inh -9, BJeLR lethal -8, Mtb hypoxia rep 2 and Mtb hypoxia rep growth -2.
COc1ccccc1C(=O)OCCN=C1NS(=O)(=O)c2ccccc21 was read as Autofluor counter 2804, ugtP null kill 2, Sa RN4220 lethal 4.0, PrP UTR inh -27, BJeLR lethal -3, Mtb hypoxia rep -11 and Mtb hypoxia rep growth 1.
For Cc1ccc(OCC(=O)Nc2ccc(CN3CCCCC3)cc2)c(C)c1 the results were Autofluor counter 4482, ugtP null kill 14, Sa RN4220 lethal 2.5, PrP UTR inh -1, BJeLR lethal -2, Mtb hypoxia rep 7 and Mtb hypoxia rep growth -2.
`CCn1c(SCC(=O)Nc2cccc(NC(C)=O)c2)nc2c([nH]c3ccccc32)c1=O` gave Autofluor counter 4162, ugtP null kill -6, Sa RN4220 lethal 2.3, PrP UTR inh 3, BJeLR lethal -5, Mtb hypoxia rep -2 and Mtb hypoxia rep growth -8.
Screening CN(C(=NS(=O)(=O)c1cccs1)c1ccccc1)c1ccc(O)cc1 returned ugtP null kill 9, Sa RN4220 lethal 13, Mtb hypoxia rep 3 and Mtb hypoxia rep growth 8.
COc1cc(Cl)c(CN2CCC(CCC(=O)NC3CC3)CC2)cc1OC was read as Autofluor counter 3676, ugtP null kill 12, Sa RN4220 lethal 5.0, PrP UTR inh -10, BJeLR lethal 10, Mtb hypoxia rep 11 and Mtb hypoxia rep growth 5.
Screening CCOC(=O)Cc1cnc(N)s1 returned Autofluor counter 4553, ugtP null kill 3, Sa RN4220 lethal 4.0, PrP UTR inh -10, BJeLR lethal -1, Mtb hypoxia rep 17 and Mtb hypoxia rep growth 7.
O=C(Nc1ccccc1F)Nc1ccccc1Br was read as Autofluor counter 2077, ugtP null kill 4, Sa RN4220 lethal 0.2, PrP UTR inh -40, BJeLR lethal 6, Mtb hypoxia rep 1 and Mtb hypoxia rep growth 5.
For CCN(Cc1ccccc1)C(=O)C(=O)c1cn(CC(=O)N2CCCC2)c2ccccc12 the results were Autofluor counter 4225, ugtP null kill 10, Sa RN4220 lethal 3.2, PrP UTR inh 1, BJeLR lethal 2, Mtb hypoxia rep 3 and Mtb hypoxia rep growth 0.
CCn1nnnc1SCC(=O)c1cc(OC)ccc1OC was read as Autofluor counter 10003, ugtP null kill -3, Sa RN4220 lethal 2.8, PrP UTR inh -23, BJeLR lethal 7, Mtb hypoxia rep 5 and Mtb hypoxia rep growth 6.
Screening Cc1cc(C(F)(F)F)n(-c2nc(C(=O)NN=Cc3ccc(F)cc3)cs2)n1 returned ugtP null kill -10, Sa RN4220 lethal 10, Mtb hypoxia rep 5 and Mtb hypoxia rep growth 4.
Screening C[C@H](NC(=O)c1ccc2ccccc2c1)C(=O)N1CCC2(CC1)NCCc1[nH]cnc12 returned Autofluor counter 5253, ugtP null kill 6, Sa RN4220 lethal 2.1, PrP UTR inh -3, BJeLR lethal 1, Mtb hypoxia rep 8 and Mtb hypoxia rep growth -7.
COc1cccc(CNC(=O)C2CCC(=O)N(C3CC3)C2)c1OC (configuration not stated) was read as Autofluor counter 5683, ugtP null kill 1, Sa RN4220 lethal 1.7, PrP UTR inh 7, BJeLR lethal 8, Mtb hypoxia rep 7 and Mtb hypoxia rep growth 8.
Screening O=C(NCC(=O)N1CC(O)CC1C(=O)N1CCCC1C(=O)OCc1ccccc1)OCc1ccccc1 (configuration not stated) returned Autofluor counter 4489, ugtP null kill 4, Sa RN4220 lethal 0.5, PrP UTR inh -20, BJeLR lethal 10, Mtb hypoxia rep 3 and Mtb hypoxia rep growth -9.
`CC(C)NC(=O)C1CCN(C(=O)c2cc3sccc3n2Cc2ccc(F)cc2)CC1` gave Autofluor counter inconclusive, ugtP null kill -1, Sa RN4220 lethal 1.3, PrP UTR inh 7, BJeLR lethal 1, Mtb hypoxia rep 11 and Mtb hypoxia rep growth 8.
O=C(CCNC(=O)c1ccccc1Cl)Nc1nnc(C2CC2)s1 was read as Autofluor counter 4636, ugtP null kill 4, Sa RN4220 lethal 8.1, PrP UTR inh -22, BJeLR lethal 9, Mtb hypoxia rep 11 and Mtb hypoxia rep growth 11.
Cc1ccc(OCC(=O)NCCNC(=O)c2cnccn2)cc1 was read as Autofluor counter 3586, ugtP null kill 7, Sa RN4220 lethal -1.2, PrP UTR inh -10, BJeLR lethal -1, Mtb hypoxia rep -1 and Mtb hypoxia rep growth -8.
Cc1cc(C(=O)NN=Cc2c[nH]c3ccccc23)cs1 was read as ugtP null kill -5, Sa RN4220 lethal -0.1, Mtb hypoxia rep -8 and Mtb hypoxia rep growth 8.
For O=C(NCc1ccc(F)cc1)C1CCCN(S(=O)(=O)c2ccc(Br)s2)C1 (configuration not stated) the results were Autofluor counter 3612, ugtP null kill 8, Sa RN4220 lethal 1.8, PrP UTR inh -26, BJeLR lethal -7, Mtb hypoxia rep 3 and Mtb hypoxia rep growth 8.
CC(C)(C)c1nnc2sc(SCC(=O)c3ccccc3)nn2c1=O was read as Autofluor counter inconclusive, ugtP null kill 3, Sa RN4220 lethal 6.9, PrP UTR inh -4, BJeLR lethal 12, Mtb hypoxia rep 13 and Mtb hypoxia rep growth 8.
For COc1ccccc1S(=O)(=O)Cc1ccc(C(=O)NCCCN2CCN(c3ccc(F)cc3)CC2)o1 the results were Autofluor counter 4338, ugtP null kill 10, Sa RN4220 lethal 4.8, PrP UTR inh -4, BJeLR lethal 7, Mtb hypoxia rep 10 and Mtb hypoxia rep growth 1.
`O=C(CN1CCN(S(=O)(=O)c2ccccc2)CC1)NC(=O)NCc1ccco1` gave Autofluor counter 4217, ugtP null kill 0, Sa RN4220 lethal -0.5, PrP UTR inh -11, BJeLR lethal 7, Mtb hypoxia rep 7 and Mtb hypoxia rep growth -1.
Screening Cc1cccc(OCC(=O)N(Cc2ccc(N(C)C)cc2)C2CCS(=O)(=O)C2)c1 (configuration not stated) returned Autofluor counter 3334, ugtP null kill -1, Sa RN4220 lethal 0.2, PrP UTR inh -22, BJeLR lethal -9, Mtb hypoxia rep -10 and Mtb hypoxia rep growth -8.
O=C(c1cccnc1)N1N=C(C2CCCCC2)CC1(O)C(F)(F)F (configuration not stated) was read as Autofluor counter 4701, ugtP null kill 0, Sa RN4220 lethal 16, PrP UTR inh -9, BJeLR lethal -9, Mtb hypoxia rep -4 and Mtb hypoxia rep growth 2.
COC(=O)c1cc(Br)c(=O)n(-c2ccc(F)cc2)c1 was read as Autofluor counter 4277, ugtP null kill -3, Sa RN4220 lethal -1.1, PrP UTR inh -10 and BJeLR lethal 11.
`O=C(NC1CCCCC1)C(c1ccc(F)cc1)N(Cc1ccc2c(c1)OCO2)C(=O)c1cnsn1` (configuration not stated) gave Autofluor counter 4462, ugtP null kill 12, Sa RN4220 lethal -2.3, PrP UTR inh -23 and BJeLR lethal -2.
Cc1ccc(S(=O)(=O)Nc2ccc3c(c2)ncn3C(C)(C)C)cc1 was read as Autofluor counter 10866, ugtP null kill -2, Sa RN4220 lethal 6.1, PrP UTR inh -23, BJeLR lethal 2, Mtb hypoxia rep 1 and Mtb hypoxia rep growth -1.
Screening Cc1ccc(NC(=O)CN(C)S(=O)(=O)c2ccc3c(c2)c(=O)n(C)c(=O)n3C)cc1 returned Autofluor counter 4011, ugtP null kill 6, Sa RN4220 lethal 4.7, PrP UTR inh -16, BJeLR lethal 8, Mtb hypoxia rep 2 and Mtb hypoxia rep growth 1.
`Cc1nc(-c2ccc(F)cc2)c(CC(=O)Nc2cc(S(=O)(=O)N3CCCCC3)ccc2C)s1` gave Autofluor counter inconclusive, ugtP null kill 6, Sa RN4220 lethal -1.8, PrP UTR inh 9, BJeLR lethal -7, Mtb hypoxia rep -4 and Mtb hypoxia rep growth 0.
`CC1=CC(=O)C=CC1(C)C(Cl)(Cl)Cl` (configuration not stated) gave Autofluor counter 4702, ugtP null kill -4, Sa RN4220 lethal 5.6, PrP UTR inh -16 and BJeLR lethal 7.
`CC1=C(C(=O)OCc2ccccc2)C(c2cccc([N+](=O)[O-])c2)NC(=O)N1C` (configuration not stated) gave Autofluor counter 4216, ugtP null kill 11, Sa RN4220 lethal -0.8, PrP UTR inh -11, BJeLR lethal -5, Mtb hypoxia rep 20 and Mtb hypoxia rep growth 9.
Screening CC(C)(C)c1cc(CCC(=O)NCc2ccncc2)cc(C(C)(C)C)c1O returned Autofluor counter 5794, ugtP null kill -8, Sa RN4220 lethal 1.3, PrP UTR inh -27, BJeLR lethal 1, Mtb hypoxia rep -11 and Mtb hypoxia rep growth 6.
`Cc1ccc(S(=O)(=O)N2CCC(=O)N(C(COCc3cccc(Cl)c3)C(C)C)CC2)cc1` (configuration not stated) gave Autofluor counter 4068, ugtP null kill -30, Sa RN4220 lethal 2.2, PrP UTR inh -23, BJeLR lethal 6, Mtb hypoxia rep 16 and Mtb hypoxia rep growth 13.
CC1=C(C(=O)Nc2cc(C)ccc2C)C(c2cccs2)NC(=S)N1 (configuration not stated) was read as Autofluor counter 21275*, ugtP null kill -4, Sa RN4220 lethal -0.9, PrP UTR inh 11, BJeLR lethal 7, Mtb hypoxia rep 1 and Mtb hypoxia rep growth 2.
For CCOC(=O)C(C(=O)OCC)C(Nc1cccc(Br)c1)c1ccccc1 (configuration not stated) the results were Autofluor counter 9369, ugtP null kill 2, Sa RN4220 lethal 0.0, PrP UTR inh -18, BJeLR lethal 4, Mtb hypoxia rep -6 and Mtb hypoxia rep growth 9.
Cc1ccc(S(=O)(=O)N2CCOCC2)cc1NC(=O)CNC(C)c1ccccc1 (configuration not stated) was read as Autofluor counter 3786, ugtP null kill 7, Sa RN4220 lethal 7.0, PrP UTR inh -21, Mtb hypoxia rep 9 and Mtb hypoxia rep growth 10.
For CCOc1ccc(NC(=O)CN(C)C(=O)c2ccccc2OCc2c(C)noc2C)cc1OCC the results were Autofluor counter inconclusive, ugtP null kill 6, Sa RN4220 lethal 6.5, PrP UTR inh -19, BJeLR lethal -1, Mtb hypoxia rep 5 and Mtb hypoxia rep growth 13.
For O=C(N/N=C/C(Cl)=C\c1ccccc1)c1ccco1 the results were Autofluor counter 3554, PrP UTR inh -105 and BJeLR lethal -6.
For S=c1nccc(-c2cccs2)[nH]1 the results were Autofluor counter 4356, ugtP null kill 0, Sa RN4220 lethal 14, PrP UTR inh -15, BJeLR lethal -5, Mtb hypoxia rep 12 and Mtb hypoxia rep growth 1.
CCOc1nc2ccccc2nc1C was read as Autofluor counter 5895, ugtP null kill -2, Sa RN4220 lethal 1.9, PrP UTR inh -4 and BJeLR lethal -9.
